# Assay outcomes as filed in PubChem BioAssay.
# YB-1 expression = YB-1 expression inhibition; U2OS, qRT-PCR YB-1 vs CDIP delta delta Cp, 16 h; hits give high values; zero = DMSO, each unit about twofold; delta delta Cp (YB-1 minus CDIP) (concentration not given with the values); 30,000 tested, 0.37% active; AID 434959;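 active = delta delta Cp rounded down to an integer at or above 3, about 3 SD of DMSO wells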;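 note: higher means less YB-1 transcript or more CDIP transcript relative to DMSO; stock transfer was 100 nL into about 100 µL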
# MITF inhib = blocks MITF activity. TRPM1 promoter luciferase, luminescence, 24 h. inhibition, % (no concentration beside the values). 37,000 tested, 0.28% active;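 active = most replicates at 85% or more, or half of them and the mean; inconclusive = half reach 85% but not the mean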;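 note: human melanocyte line stably carrying TRPM1 promoter luciferase reporter; 0% = vehicle wells and 100% = a positive control; the first replicate is given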
# PD-1 reverse act = activators reversing PD-1 mediated T-cell inhibition; primary human CD4 T cells, PD-L1 beads, CellTiter-Glo 96 h; activation, % (concentration not given with the values); 29,000 tested, under 10 active; AID 2316;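 active = replicate mean of 50% or more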;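 note: 0% = median vehicle wells and 100% = positive control; 100 nL library stock added to about 50 µL; numbers are from one replicate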
# Hedgehog inh = Sonic Hedgehog pathway inhibition. Shh-LIGHT2 Gli-luciferase reporter, 30 h. 22,000 tested, 2.1% active. inhibition, % (test concentration not listed);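 active = replicate mean of 65% or more; inconclusive = mean lower but half the replicates past it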;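 note: pathway switched on by Shh-conditioned medium diluted 1 in 25 in low serum; 100 nL library stock added to about 40 µL; 0% = median of neutral wells and 100% = positive control level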
# * = called active by the depositor; ? = inconclusive; nt = not tested or not shown. An excerpt; rates above refer to the full screens.
SMILES,YB-1 expression,MITF inhib,PD-1 reverse act,Hedgehog inh
Cc1cc(C(=O)Nc2cccc3c2O[C@H](CN(C)Cc2ccc4c(c2)OCO4)[C@@H](C)CN([C@H](C)CO)C3=O)n(C)n1,-0.658,-12.8,-1.1,?
C[C@H](CO)N1C[C@H](C)[C@@H](CN(C)C(=O)Nc2ccc(C(F)(F)F)cc2)Oc2c(NC(=O)NC3CCCCC3)cccc2C1=O,0.272,6.4,-2.8,-15.0
O=C(CC1NCCNC1=O)Nc1ccc(Oc2ccccc2)cc1 (centres undefined),nt,-35.8,1.2,nt
C[C@H](CO)N1C[C@H](C)[C@H](CN(C)C(=O)Nc2ccc(F)cc2)Oc2c(NC(=O)Nc3ccccc3)cccc2C1=O,-0.389,3.1,-0.7,-49.4
COc1ccc(NC(=O)N(C)C[C@H]2Oc3c(NC(=O)C4CCOCC4)cccc3C(=O)N([C@@H](C)CO)C[C@@H]2C)cc1,0.241,0.2,1.8,-13.7
CC1(C)CC[C@]2(C(=O)O[C@@H]3O[C@H](CO)[C@@H](O)[C@H](O)[C@H]3O)CC[C@]3(C)C(=CCC4[C@@]5(C)C[C@H](O)[C@H](O[C@@H]6O[C@H](C(=O)O)[C@@H](O)[C@H](O)[C@H]6O)[C@@](C)(CO)C5CC[C@]43C)C2C1 (some centres undefined),0.00723,1.5,-0.6,-17.6
C[C@@H]1CN([C@@H](C)CO)C(=O)c2cc(NS(=O)(=O)c3ccccc3)ccc2O[C@@H]1CN(C)Cc1ccc(C(=O)Nc2ccccc2N)cc1,-0.444,23.6,-1.1,nt
COc1ccc(NC(=O)Nc2ccc3c(c2)CC(=O)N([C@H](C)CO)C[C@@H](C)[C@@H](CN(C)S(=O)(=O)c2ccc(Cl)cc2)O3)cc1,-0.339,-1.0,-0.5,-17.5
C[C@H]1CN([C@@H](C)CO)C(=O)c2cc(NC(=O)Nc3ccc(C(F)(F)F)cc3)ccc2O[C@@H]1CN(C)Cc1ccc(Oc2ccccc2)cc1,0.154,-1.9,1.1,nt
C[C@H]1CN([C@@H](C)CO)C(=O)Cc2cc(NC(=O)Nc3ccc(C(F)(F)F)cc3)ccc2O[C@@H]1CN(C)S(=O)(=O)c1cccs1,-0.369,28.2,1.2,-5.9
CCc1c(O)nc(SCC(=O)Nc2ccc(Cl)cc2Cl)n(-c2ccccc2)c1=O,nt,1.7,1.2,nt
C[C@H](CO)N1C[C@H](C)[C@@H](CN(C)S(=O)(=O)c2ccccc2)Oc2ccc(NS(=O)(=O)c3ccc(Cl)cc3)cc2C1=O,0.0642,0.7,-0.6,nt
CC(=O)c1cc2ccccc2oc1=O,0.666,0.7,1.2,-27.2
C[C@H]1CN([C@@H](C)CO)C(=O)Cc2cc(NS(=O)(=O)c3cn(C)cn3)ccc2O[C@@H]1CN(C)Cc1ccc2c(c1)OCO2,0.292,-1.7,0.5,-14.6
C[C@@H]1CN([C@H](C)CO)C(=O)Cc2cc(NC(=O)NC3CCCCC3)ccc2O[C@@H]1CN(C)S(=O)(=O)c1ccc(F)cc1,0.112,-12.4,nt,8.8
Cc1ccc(CNC(=O)c2cccc(Cn3cc(Cl)cn3)c2)cc1,nt,0.0,1.0,nt
COc1cc(S(C)=O)ccc1-c1nc2ccncc2[nH]1 (centres undefined),0.666,-4.9,7.7,36.7
COc1ccc(NC(=O)Nc2cccc3c2O[C@H](CN(C)CC2CCCCC2)[C@H](C)CN([C@@H](C)CO)C3=O)cc1,-0.793,-6.8,-0.7,27.4
C[C@H](CO)N1C[C@H](C)[C@@H](CN(C)S(=O)(=O)c2ccc(Cl)cc2)Oc2ccc(NC(=O)CCC(F)(F)F)cc2C1=O,-0.431,-7.8,-0.1,4.5
Cc1ccc(S(=O)(=O)Nc2ccc3c(c2)C(=O)N([C@H](C)CO)C[C@@H](C)[C@H](CN(C)Cc2ccc(C(=O)O)cc2)O3)cc1,-0.161,4.5,0.9,-16.0
C[C@@H]1CCCCO[C@@H](CN(C)Cc2ccccc2)[C@@H](C)CN([C@H](C)CO)C(=O)c2cc(NC(=O)Nc3ccc(C(F)(F)F)cc3)ccc2O1,0.192,-1.2,-8.2,-4.7
COc1ccc(-c2nn(C)c(=O)c3ccccc23)cc1CNC(=O)Nc1ccccc1,nt,-4.1,-3.2,nt
CC(C)NC(=O)N(C)C[C@H]1OCCCC[C@@H](C)Oc2ccc(NC(=O)NC3CCCCC3)cc2C(=O)N([C@H](C)CO)C[C@@H]1C,0.207,12.3,nt,-15.7
C[C@@H]1CN([C@H](C)CO)C(=O)c2cccc(NC(=O)NC3CCCCC3)c2O[C@H]1CN(C)CC1CCCCC1,-0.699,29.6,-4.7,25.1
COc1cc(C)c2c(c1)CCC1C2CCC2(C)C(O)CCC12 (centres undefined),-0.261,-72.0,-1.1,?
# The listing continues:
SMILES,YB-1 expression,MITF inhib,PD-1 reverse act,Hedgehog inh
Cc1ccc(S(=O)(=O)Nc2ccc3c(c2)CC(=O)N([C@@H](C)CO)C[C@@H](C)[C@@H](CN(C)Cc2ccncc2)O3)cc1,0.323,0.8,-0.7,7.7
C[C@@H]1CCCCO[C@@H](CN(C)C(=O)Nc2ccc(C(F)(F)F)cc2)[C@@H](C)CN([C@H](C)CO)C(=O)c2cc(NC(=O)c3ccccc3)ccc2O1,-0.336,11.0,-3.3,28.7
Cc1nnc2sc(-c3cccc(NC(=O)c4cccnc4)c3)nn12,nt,-24.1,0.9,nt
Cn1c(SCC(=O)Nc2cccc(C(=O)O)c2)nnc1-c1cc2cc(Br)ccc2o1,nt,-17.2,0.6,nt
C[C@H]1CN([C@@H](C)CO)C(=O)c2cc(NC(=O)c3ccncc3)ccc2O[C@@H]1CN(C)S(C)(=O)=O,0.725,27.4,0.3,nt
C[C@H](CO)N1C[C@H](C)[C@H](CN(C)Cc2ccc(Oc3ccccc3)cc2)Oc2ccc(NC(=O)Nc3ccccc3)cc2C1=O,0.0305,7.9,0.6,1.9
CNc1nc(OCC#N)nc(N2CCCCC2)n1,nt,-4.2,-0.3,nt
O=C(Nc1c(C(=O)N2CCCCC2)cnn1-c1ccccc1)c1ccccc1,0.194,-13.4,0.2,9.8
CNC[C@H]1Oc2c(NC(=O)C3CC3)cccc2C(=O)N([C@@H](C)CO)C[C@@H]1C,0.267,-0.4,nt,-9.4
c1ccc(N=c2scc(-c3cccs3)n2-c2ccccc2)cc1,-0.497,-12.0,-2.0,nt
COc1ccc(NC(=O)N(C)C[C@H]2Oc3ccc(NC(=O)Nc4ccc(F)cc4)cc3CC(=O)N([C@H](C)CO)C[C@H]2C)cc1,0.325,0.8,-0.9,0.9
O=C(CSc1nc2ccccc2c(=O)[nH]1)Nc1ccc2c(c1)OCCO2,nt,-66.9,-0.5,nt
CCOc1ccc(C(=O)N2CCCC2)cc1,-0.386,-3.6,0.5,-6.7
Cc1ccc(S(=O)(=O)N(C)/N=C/c2cccc(Br)c2)cc1,-5.16,17.6,0.3,9.8
C[C@@H]1CN([C@H](C)CO)C(=O)c2cccc(NS(C)(=O)=O)c2O[C@H]1CN(C)Cc1ccc(C(=O)O)cc1,0.00476,-9.8,nt,-9.2
C=CCSc1ncc2c(=S)[nH]c(=S)[nH]c2n1,0.151,70.8,0.3,65.4*
CCC(Sc1nncn1C)C(=O)Nc1ccc([N+](=O)[O-])cc1 (centres undefined),nt,-12.2,1.2,nt
CS(=O)(=O)N(CC(=O)Nc1cccc([N+](=O)[O-])c1)Cc1ccc(Cl)cc1,nt,-2.6,-0.9,nt
Cc1cc(C(F)(F)F)nc(SCC(=O)N2c3ccccc3Sc3ccccc32)n1,nt,11.8,-1.6,nt
COc1ccc(S(=O)(=O)N(C)CC(=O)Nc2ccccc2Br)cc1C,nt,20.9,0.6,nt
CCOC(=O)CCc1ccc(OCc2ccccc2)c(I)c1,-0.435,-23.6,-0.8,-54.0
COc1cc(/C=C/C=O)cc(OC)c1OC,3,2.0,-1.8,-48.7
COC(=O)c1ccccc1NC(=O)C(C)NS(=O)(=O)c1cc(Cl)ccc1Cl (centres undefined),nt,14.6,-1.6,nt
C[C@H]1CN([C@@H](C)CO)C(=O)c2cc(NC(=O)Cn3cnnn3)ccc2O[C@H]1CN(C)S(C)(=O)=O,-0.777,4.0,2.3,nt
C[C@@H]1O[C@@H](Oc2cc(O)c3c(=O)c(-c4ccc(O)cc4)coc3c2)[C@H](O)[C@H](O)[C@H]1O,3.88*,-18.8,0.8,40.4
# The list continues.
SMILES,YB-1 expression,MITF inhib,PD-1 reverse act,Hedgehog inh
CSc1c(C#N)c(-c2cccs2)nn1CNC(=O)Nc1ccccc1C(F)(F)F,-0.965,1.0,-0.6,22.1
CCS(=O)(=O)c1nc2ccccc2n1CC(N)=O,nt,9.7,1.3,nt
CC(C)NC(=O)Nc1ccc2c(c1)CC(=O)N([C@@H](C)CO)C[C@H](C)[C@@H](CN(C)C(=O)NC(C)C)O2,0.43,-22.0,1.7,-7.0
C[C@@H]1CN([C@H](C)CO)C(=O)Cc2cc(NC(=O)Nc3ccc(C(F)(F)F)cc3)ccc2O[C@H]1CN(C)C(=O)NC1CCCCC1,0.445,-17.8,nt,-10.2
C[C@@H]1CN([C@H](C)CO)C(=O)c2cc(NC(=O)C3CCCCC3)ccc2O[C@H]1CN(C)Cc1ccc2c(c1)OCO2,0.444,-8.1,0.7,14.7
COc1ccc(NC(=O)CN(c2ccccc2Cl)S(C)(=O)=O)c(OC)c1,nt,-7.1,0.0,nt
CCn1c(SCC(=O)Nc2ccccc2F)nnc1-c1cccc(N)c1,nt,-1.6,3.0,nt
COc1ccc(NC(=S)N(C)Cc2c(C)nn(C)c2C)c(OC)c1,nt,1.0,0.8,nt
O=C(OCCn1ncc2ccccc2c1=O)c1ccc(F)cc1Cl,0.385,-14.0,-0.7,-6.9
C[C@@H]1CCCCO[C@@H](CN(C)Cc2ccc(C(=O)O)cc2)[C@@H](C)CN([C@H](C)CO)C(=O)c2cc(NS(C)(=O)=O)ccc2O1,-0.0506,0.0,nt,-1.3
COC(=O)C1(Cc2ccc(O)c(CC=C(C)C)c2)OC(=O)C(OC)=C1c1ccc(O)cc1 (centres undefined),0.281,nt,nt,-26.5
COc1ccc(S(=O)(=O)N(C)C[C@@H]2Oc3ccc(NS(=O)(=O)c4cccs4)cc3CC(=O)N([C@H](C)CO)C[C@H]2C)cc1,0.268,1.8,-0.5,1.5
CNC[C@H]1Oc2c(NC(=O)c3cc(C)nn3C)cccc2C(=O)N([C@@H](C)CO)C[C@H]1C,-0.338,-13.4,1.7,-46.5
Cc1noc(C)c1NC(=O)Nc1cccc2c1O[C@H](CN(C)CC1CCCCC1)[C@@H](C)CN([C@H](C)CO)C2=O,-0.0761,-9.4,nt,15.9
C=CC[C@]12C[C@@H](OC)C(=O)C(OC)=C1O[C@@H](c1cc(OC)c3c(c1)OCO3)[C@@H]2C,-0.201,14.9,-3.2,-47.8
C[C@H](CO)N1C[C@H](C)[C@@H](CN(C)S(C)(=O)=O)Oc2c(NC(=O)c3ccncc3)cccc2C1=O,0.63,6.2,nt,11.6
COc1ccc(CN(C)C[C@@H]2OCCCC[C@@H](C)Oc3ccc(NC(=O)NC4CCCCC4)cc3C(=O)N([C@H](C)CO)C[C@@H]2C)cc1,0.316,-17.1,nt,-1.6
COc1ccc(S(=O)(=O)Nc2ccc3c(c2)C(=O)N([C@H](C)CO)C[C@H](C)[C@H](CN(C)S(=O)(=O)c2ccc(F)cc2)O3)cc1,-0.134,-10.2,0.2,16.9
COc1cccc(NC(=O)Cn2cc(C(=O)C3CC3)c3ccccc32)c1,nt,47.2,0.1,nt
O=c1cc(-c2ccc(O)c(O)c2)oc2c(C3OC(CO)C(O)C(O)C3O)c(O)cc(O)c12 (centres undefined),-0.0746,5.6,-1.7,-37.9
COc1ccc(S(=O)(=O)Nc2ccc3c(c2)CC(=O)N([C@@H](C)CO)C[C@@H](C)[C@@H](CN(C)C)O3)cc1,-0.277,-7.9,2.3,-41.2
CCC(C)NC(=O)Cn1cnc2c1c(=O)n(C)c(=O)n2C (centres undefined),-0.347,6.8,1.0,14.9
C[C@H](CO)N1C[C@H](C)[C@H](CN(C)S(=O)(=O)c2ccccc2)Oc2ccc(NC(=O)C3CCCCC3)cc2CC1=O,0.154,-2.7,-1.2,9.0
COc1ccc(S(=O)(=O)Nc2ccc3c(c2)CC(=O)N([C@H](C)CO)C[C@H](C)[C@H](CN(C)C(=O)NC(C)C)O3)cc1,-0.257,-11.9,1.3,nt
Cc1sc2nc3c4ccccc4c(N4CCC(C)CC4)nn3c(=O)c2c1C,0.361,-7.6,-0.1,nt
CN1C(=O)N(c2ccc(Cl)cc2)C(C)(O)CC1(C)C (centres undefined),0.836,-21.4,-1.2,15.5

# A second format for some results above.
Structure | YB-1 expression | MITF inhib | PD-1 reverse act | Hedgehog inh
COc1ccc(CN(C)C[C@@H]2OCCCC[C@@H](C)Oc3ccc(NC(=O)NC4CCCCC4)cc3C(=O)N([C@H](C)CO)C[C@@H]2C)cc1 | 0.316 | -17.1 | nt | -1.6
C[C@H](CO)N1C[C@H](C)[C@@H](CN(C)S(C)(=O)=O)Oc2c(NC(=O)c3ccncc3)cccc2C1=O | 0.63 | 6.2 | nt | 11.6
COc1ccc(S(=O)(=O)Nc2ccc3c(c2)CC(=O)N([C@@H](C)CO)C[C@@H](C)[C@@H](CN(C)C)O3)cc1 | -0.277 | -7.9 | 2.3 | -41.2
